Screening data as filed in PubChem.
CtBP-E1A inh – blocks the CtBP interaction with E1A; actives 0.49% (n = 340,000); activity change, % (no concentration beside the values); AlphaScreen GST-E1A/His-CtBP binding, 1536-well; stronger effect = lower value; control for the full effect not named in the record; in the data active means activity change below about -65%; inconclusive means about -30% to -65%; inactive means above about -30%; also: % is scaled to controls: 0 for no effect and ±100 for the full control effect; compound concentration not given in the record
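In 5 uL wells, 23 nL compound meets equimolar GST-E1A and His-CtBP (5X stock 125 nM each) for 2 h, 37 °C. Beads (5X, 50 ug/mL) then 1 h, 37 °C, dark.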
D2 agonist – agonists of human D2 dopamine receptor (beta-arrestin). AID 624465. DiscoveRx PathHunter D2 beta-arrestin, luminescence, 90 min; 100% = 57 uM dopamine signal. activation, % (concentration not given with the values). actives 0.084% (n = 360,000). P14416; in the data active = activation above about 40%; inconclusive = about 15% to 40%; inactive = below about 15%; also: compound concentration not given in the record; the text of the record calls up to 30% inactive
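Agonist mode: compounds alone added to overnight-plated D2 PathHunter cells for 90 min at 37 C, with 57 uM final dopamine (EC100) defining full response. Beta-arrestin recruitment detected by chemiluminescent reagent, read after 1 h at ambient temperature.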
Sfp inh – blocks B. subtilis Sfp PPTase activity; Q9F4F7; Biochemical Sfp PPTase activity, qHTS; Potency, µM, for the others: max response, negative = inhibition, most hits filed as inhibitors; actives 3.5% (n = 310,000); AID 1490; active = well fitted inhibition curve with a large enough effect; inconclusive = small, poorly fitted or top-dose-only effect, or another doubt; inactive = no such curve, though single readings can be large or run the other way;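 also: the enzyme is Sfp with the accession as filed and its product quenches rhodamine fluorescence; potency is read from the fitted curve at half-maximal effect; 0% = enzyme reaction without inhibitor and -100% = no enzyme wells; top concentration of the series not given in the record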
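Compounds were incubated with enzyme (final 15 nM) for 15 min at room temperature before substrate addition started the reaction. Fluorescence at 525 nm excitation, 598 nm emission was recorded immediately and after 30 minutes.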
D2 PAM – positive allosteric modulators of human D2 dopamine receptor; P14416; DiscoveRx D2 beta-arrestin cells, luminescence, 90 min; 100% = 57 uM dopamine signal; potentiation, % (concentration not given with the values); actives 0.23% (n = 360,000); active = potentiation of 50% or more; inconclusive = 30% to 50%; inactive = 30% or less;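 also: compound concentration not given in the record; tested on top of an EC20 dose of dopamine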
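PathHunter D2 cells, attached overnight at 37 deg C, received compound in DMSO plus dopamine at EC20 (50 nM final) for 90 min at 37 deg C. Beta-arrestin recruitment was read as luminescence after 1 h with detection reagent at ambient temperature.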
Six1-Eya2 inh – Six1/Eya2 interaction inhibition. AlphaScreen GST-Six1/His-Eya2 binding, biochemical; stronger effect = lower value; control for the full effect not named in the record. activity change, % (no concentration beside the values). actives 0.56% (n = 360,000). Q15475+O00167; in the data active = activity change below about -65%; inconclusive = about -30% to -65%; inactive = above about -30%; also: % is scaled to controls: 0 for no effect and ±100 for the full control effect; compound concentration not given in the record
Target sequence (O00167 whole entry, looked up): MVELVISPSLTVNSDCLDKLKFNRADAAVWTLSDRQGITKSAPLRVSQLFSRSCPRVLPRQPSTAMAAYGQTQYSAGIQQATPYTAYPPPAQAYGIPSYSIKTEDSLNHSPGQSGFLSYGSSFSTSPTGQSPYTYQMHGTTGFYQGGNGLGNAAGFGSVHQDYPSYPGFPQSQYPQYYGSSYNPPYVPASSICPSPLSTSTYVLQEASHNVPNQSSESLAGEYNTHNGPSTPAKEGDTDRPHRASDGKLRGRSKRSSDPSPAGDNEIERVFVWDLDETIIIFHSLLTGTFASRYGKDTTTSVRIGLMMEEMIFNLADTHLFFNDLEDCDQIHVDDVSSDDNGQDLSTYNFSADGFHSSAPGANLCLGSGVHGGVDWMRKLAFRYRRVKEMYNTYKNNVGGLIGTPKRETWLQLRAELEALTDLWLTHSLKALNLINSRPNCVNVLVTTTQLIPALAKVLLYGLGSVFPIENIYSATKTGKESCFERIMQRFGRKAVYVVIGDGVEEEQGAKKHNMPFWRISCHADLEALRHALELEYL
Target sequence (Q15475 whole entry, looked up): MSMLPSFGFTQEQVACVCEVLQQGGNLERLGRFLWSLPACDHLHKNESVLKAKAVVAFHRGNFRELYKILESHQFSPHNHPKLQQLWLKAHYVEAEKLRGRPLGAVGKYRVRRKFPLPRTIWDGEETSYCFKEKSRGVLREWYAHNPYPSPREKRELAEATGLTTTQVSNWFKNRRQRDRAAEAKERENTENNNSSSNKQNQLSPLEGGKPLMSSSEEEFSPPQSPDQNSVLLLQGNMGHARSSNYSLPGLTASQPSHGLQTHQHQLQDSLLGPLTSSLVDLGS
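GST-Six1 + His-Eya2 (5X stock: 250/500 nM); Tris pH 8.0, 300 mM NaCl, 0.05% BSA, 0.02% Tween 20; GSH donor/Ni acceptor beads; 1 h 37 °C dark; AlphaScreen readout.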
TRPV1 potentiator – human TRPV1 potentiation. Q8NER1. TRPV1-expressing cells, Fluo-8 calcium influx, capsaicin EC20 potentiation; host cell line not named in the record; control for the full effect not named in the record. potentiation, % at 8.33 µM. actives 0.02% (n = 320,000); active means potentiation above 80%; inconclusive means 30% to 80%; inactive means below 30%; also: 0% is about no effect
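TRPV1-expressing cells were cultured overnight at 35.5C and loaded with Fluo-8 calcium dye for 40 to 90 min at room temperature. After a 10 s baseline, compound was added and calcium influx was read kinetically for 3 min (ex 480/em 520 nm).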
PINK1 expr mod – modulators of PINK1 expression. actives 0.2% (n = 410,000). Potency, µM (highest dose often 76.6 µM), inactives show at the top dose activation (PINK1 increase), actives largely listed as activators. PINK1 immunofluorescence, high-content cytometry, 24 h. AID 624263; active = well fitted activation curve with a large enough effect; inconclusive = small, poorly fitted or top-dose-only effect; inactive = flat fitted curve, though single readings scatter; cell line not stated here;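 also: potency is read from the fitted curve at half-maximal effect; % of control where 0% means no effect; nearly all actives have a fitted effect of over 65% in size; a mitochondrial uncoupler was the plate control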
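A stable cell line was treated with compounds at 5 concentrations for 24 hours, with CCCP as control. PINK1 levels and mitochondrial localization were measured by immunofluorescence with mitochondrial, cell and nuclear markers after fixation, read by laser-scanning cytometry.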
* marks the source's active call; other numbers are inactive results; [ ] = another dose, or the depositor's remark.

Screening CCCCn1c(N)c(N(Cc2ccccc2OC)C(=O)c2cc(CC)c(C)s2)c(=O)[nH]c1=O returned CtBP-E1A inh -1.5, D2 agonist 2.3, D2 PAM -10.0, Six1-Eya2 inh 4.7, TRPV1 potentiator -3.1 and PINK1 expr mod -1.9%.
O=C(NCc1cccnc1)C12CC3CC(CC(C3)C1)C2 was read as CtBP-E1A inh -4.7, D2 agonist -1.5, Sfp inh 2.6%, D2 PAM -2.4, Six1-Eya2 inh 8.9, TRPV1 potentiator -7.6 and PINK1 expr mod -1.8%.
Screening O=C(c1ccccc1Oc1ccccc1)N1CCN(c2ccc(F)cc2)CC1 returned CtBP-E1A inh -7.3, D2 agonist -2.5, Sfp inh -5.7%, D2 PAM -4.6, Six1-Eya2 inh -10.9, TRPV1 potentiator 8.5 and PINK1 expr mod 1.5%.
Screening CCNC(=O)C1(C)CCN(C(=O)c2cccc(OC(F)(F)F)c2)C1 (stereo unspecified) returned CtBP-E1A inh 7.7, D2 agonist -3.0, D2 PAM -13.9, Six1-Eya2 inh 1.0 and PINK1 expr mod -1.1%.
For COCCCNC(=O)CCn1c(=O)c2ccccc2n(CC(=O)Nc2cc(Cl)ccc2C)c1=O the results were CtBP-E1A inh 12.3, D2 agonist -1.3, Sfp inh 11.4%, D2 PAM -10.2, Six1-Eya2 inh 4.9, TRPV1 potentiator 3.4 and PINK1 expr mod -0.9%.
Screening CCNc1nc(NCC)nc(N/N=C/c2ccc(OC)cc2)n1 returned D2 agonist -4.1, Sfp inh -1.7%, D2 PAM -30.6, Six1-Eya2 inh -1.2, TRPV1 potentiator 2.9 and PINK1 expr mod 3.1%.
For CCOc1ccc(/C=C/c2c([N+](=O)[O-])c(=O)n(C)c(=O)n2C)cc1 the results were CtBP-E1A inh inconclusive, D2 agonist 5.5, Sfp inh -11.9%, D2 PAM -5.1, Six1-Eya2 inh -6.7, TRPV1 potentiator 7.4 and PINK1 expr mod 2.1%.
COc1ccc(NC(=O)Cn2nnc(C(=O)NCc3ccccc3)c2N)cc1Cl was read as CtBP-E1A inh 6.7, D2 agonist -0.9, Sfp inh 2.2%, D2 PAM -6.6, Six1-Eya2 inh 0.8, TRPV1 potentiator 7.8 and PINK1 expr mod 13.6%.
CCN(CC)S(=O)(=O)c1ccc2[nH]c(=O)cc(C(=O)NCc3ccccc3)c2c1 was read as CtBP-E1A inh 12.5, D2 agonist 11.3, Sfp inh 9.0%, D2 PAM 3.2, Six1-Eya2 inh 0.9, TRPV1 potentiator 25.0 and PINK1 expr mod 6.1%.
Screening COC(=O)c1cc(NCc2ccccc2F)ccc1N1CCOCC1 returned CtBP-E1A inh -13.9, D2 agonist 2.1, Sfp inh -11.2%, D2 PAM 4.1, Six1-Eya2 inh -9.3, TRPV1 potentiator -4.9 and PINK1 expr mod -3.5%[38.3 µM].
Screening COc1ccc(-c2nnc(SCC(=O)NC3CCCCC3)n2N)cc1 returned CtBP-E1A inh -14.1, D2 agonist 0.5, D2 PAM 0.8, Six1-Eya2 inh 6.5, TRPV1 potentiator 7.1 and PINK1 expr mod 4.5%.
Screening CC1CCN(c2ccc(C(=O)Nc3nnc(C4CC4)s3)cc2[N+](=O)[O-])CC1 returned CtBP-E1A inh 0.0, D2 agonist -0.7, Sfp inh -0.6%, D2 PAM 2.4, Six1-Eya2 inh -1.6, TRPV1 potentiator -2.1 and PINK1 expr mod 5.2%.
`COC(=O)COc1ccc(/C=N/NC(=O)CN(c2ccccc2OC)S(=O)(=O)c2ccccc2)cc1` gave CtBP-E1A inh inconclusive, D2 agonist 6.5, Sfp inh 9.5%, D2 PAM 10.4, Six1-Eya2 inh inconclusive, TRPV1 potentiator 3.0 and PINK1 expr mod -3.5%.
`Cc1cc(C)n(-c2ccc([N+](=O)[O-])cc2)n1` gave CtBP-E1A inh 12.5, D2 agonist 2.0, Sfp inh -14.3%, D2 PAM -0.7, Six1-Eya2 inh -1.7, TRPV1 potentiator 16.1 and PINK1 expr mod 0.9%.
Screening CSc1ccc(C(=O)C2CCCN(C(=O)c3cc4cc(F)ccc4[nH]3)C2)cc1 (stereo unspecified) returned CtBP-E1A inh -7.8, D2 agonist 1.9, Sfp inh 10.0%, D2 PAM -3.5, Six1-Eya2 inh -5.3, TRPV1 potentiator inconclusive and PINK1 expr mod -2.4%.

Not a retest: entries from further up.
Screening CCCCn1c(N)c(N(Cc2ccccc2OC)C(=O)c2cc(CC)c(C)s2)c(=O)[nH]c1=O returned CtBP-E1A inh -1.5, D2 agonist 2.3, D2 PAM -10.0, Six1-Eya2 inh 4.7, TRPV1 potentiator -3.1 and PINK1 expr mod -1.9%.
O=C(NCc1cccnc1)C12CC3CC(CC(C3)C1)C2 was read as CtBP-E1A inh -4.7, D2 agonist -1.5, Sfp inh 2.6%, D2 PAM -2.4, Six1-Eya2 inh 8.9, TRPV1 potentiator -7.6 and PINK1 expr mod -1.8%.

The listing picks up, repeating the two entries before the break.
`Cc1cc(C)n(-c2ccc([N+](=O)[O-])cc2)n1` gave CtBP-E1A inh 12.5, D2 agonist 2.0, Sfp inh -14.3%, D2 PAM -0.7, Six1-Eya2 inh -1.7, TRPV1 potentiator 16.1 and PINK1 expr mod 0.9%.
Screening CSc1ccc(C(=O)C2CCCN(C(=O)c3cc4cc(F)ccc4[nH]3)C2)cc1 (stereo unspecified) returned CtBP-E1A inh -7.8, D2 agonist 1.9, Sfp inh 10.0%, D2 PAM -3.5, Six1-Eya2 inh -5.3, TRPV1 potentiator inconclusive and PINK1 expr mod -2.4%.
Screening C=CCOc1cccc(C(=O)N2CCCC(CNS(=O)(=O)c3cccs3)C2)c1 (stereo unspecified) returned CtBP-E1A inh -15.4, D2 agonist 3.1, Sfp inh 9.6%, D2 PAM -11.4, Six1-Eya2 inh 2.9, TRPV1 potentiator -6.7 and PINK1 expr mod -0.3%.
For CC(/C=N/NC(=O)c1ccccc1F)c1ccccc1 (stereo unspecified) the results were CtBP-E1A inh 8.3, D2 agonist -1.3, Sfp inh 29.6%, D2 PAM 1.9, Six1-Eya2 inh 6.6, TRPV1 potentiator -2.6 and PINK1 expr mod 0.5%.
Screening CCCC1CCC(c2ccc(C(N)=O)cc2)CC1 (stereo unspecified) returned CtBP-E1A inh -2.2, D2 agonist -1.3, Sfp inh 11.4%, D2 PAM 0.6, Six1-Eya2 inh 3.8, TRPV1 potentiator -0.3 and PINK1 expr mod 0.1%.
Screening COCCN(CC(=O)Nc1ccccc1C(F)(F)F)C(=O)/C=C/c1ccc2ccccc2n1 returned D2 agonist -1.9, D2 PAM 5.2, Six1-Eya2 inh 2.9, TRPV1 potentiator -7.6 and PINK1 expr mod -0.8%.
`O=C(CCN1C(=O)c2ccccc2C1=O)NC(=S)Nc1ccccc1` gave CtBP-E1A inh 0.0, D2 agonist 1.7, Sfp inh -12.5%, D2 PAM -11.3, Six1-Eya2 inh -15.2, TRPV1 potentiator 9.4 and PINK1 expr mod 2.3%.
CCN(CC)C(=O)CCc1nnc(CCc2c[nH]c3ccccc23)o1 was read as CtBP-E1A inh -2.3, D2 agonist -4.4, Sfp inh 24.9%, D2 PAM -1.2, Six1-Eya2 inh -2.1, TRPV1 potentiator 2.5 and PINK1 expr mod 1.5%.
Screening COc1ccc2c(c1)c1nc3ccccc3nc1n2Cc1ccc(OC)c(OC)c1 returned CtBP-E1A inh 31.2, D2 agonist -2.3, Sfp inh inconclusive, D2 PAM -11.3, Six1-Eya2 inh 10.7, TRPV1 potentiator 10.8 and PINK1 expr mod 5.0%.
`COc1cccc(NC(=O)C(=O)NCc2ccncc2)c1` gave CtBP-E1A inh 7.8, D2 agonist 0.6, Sfp inh 21.4%, D2 PAM -6.6, Six1-Eya2 inh -0.4, TRPV1 potentiator -5.6 and PINK1 expr mod -0.8%.
For O=[N+]([O-])c1ccc(-c2cnc[nH]2)cc1 the results were CtBP-E1A inh -2.6, D2 agonist -6.4, Sfp inh 7.8%, D2 PAM -2.9, Six1-Eya2 inh 4.6, TRPV1 potentiator -5.4 and PINK1 expr mod -2.3%.
For CC1CCN(c2nnc(N)s2)CC1 the results were CtBP-E1A inh 1.7, D2 agonist -1.4, Sfp inh 19.6%, D2 PAM -1.0, Six1-Eya2 inh 2.5, TRPV1 potentiator 2.6 and PINK1 expr mod 7.1%[38.3 µM].
`CC(C)CC(NC(=O)OC(C)(C)C)c1cn([C@@H](Cc2cc3ccccc3[nH]2)C(=O)N2CCN(C(=O)OC(C)(C)C)CC2)nn1` (stereo partly specified) gave D2 agonist 1.9, Sfp inh 15.8%, D2 PAM -9.5, Six1-Eya2 inh -15.4, TRPV1 potentiator 15.5 and PINK1 expr mod 4.7%.
Screening COC(=O)CCC(=O)NN1C(=O)c2ccccc2C1=O returned CtBP-E1A inh -1.7, D2 agonist -5.2, Sfp inh 12.1%, D2 PAM -4.7, Six1-Eya2 inh 7.0, TRPV1 potentiator 2.2 and PINK1 expr mod 0.5%.
`COc1ccc(N2CCN(c3oc(COc4ccc(Cl)cc4Cl)nc3C#N)CC2)cc1` gave CtBP-E1A inh inconclusive, D2 agonist -1.5, Sfp inh 4.5%, D2 PAM -12.6, Six1-Eya2 inh inconclusive, TRPV1 potentiator 15.5 and PINK1 expr mod -0.3%.
`CCOC(=O)CNC(=O)CSc1nc2ncc(Br)cc2[nH]1` gave CtBP-E1A inh -5.2, D2 agonist -3.7, Sfp inh -15.1%, D2 PAM -0.2, Six1-Eya2 inh -0.4, TRPV1 potentiator 4.9 and PINK1 expr mod 0.1%.
`COc1ccc(Cl)cc1NC(=O)CN(C)C(=O)Cc1n[nH]c(=O)c2ccccc12` gave CtBP-E1A inh -8.0, D2 agonist -6.8, D2 PAM -21.8, Six1-Eya2 inh -0.2, TRPV1 potentiator 3.4 and PINK1 expr mod -1.3%.
Screening CCCNC(=O)CN(Cc1ccco1)S(=O)(=O)c1ccc(OCC)cc1 returned CtBP-E1A inh 4.9, D2 agonist -3.4, Sfp inh -3.9%, D2 PAM 5.5, Six1-Eya2 inh 3.9, TRPV1 potentiator -17.4 and PINK1 expr mod 9.1%.
For Cc1cc(C)nc(/N=C2\NC(=O)CC(C(=O)O)N2c2ccc(Oc3ccccc3)cc2)n1 (stereo unspecified) the results were CtBP-E1A inh 0.8, D2 agonist -2.2, Sfp inh -0.6%, D2 PAM -0.7, Six1-Eya2 inh -2.2, TRPV1 potentiator -0.6 and PINK1 expr mod -0.3%.
CCOC(=O)C/C(C)=N/NC(=O)c1cccs1 was read as CtBP-E1A inh 1.3, D2 agonist -2.0, Sfp inh -10.2%, D2 PAM -4.1, Six1-Eya2 inh -6.5, TRPV1 potentiator 0.6 and PINK1 expr mod 0.7%[38.3 µM].
